High-throughput results deposited in PubChem BioAssay by several laboratories.
L major viab: inhibitors of Leishmania major promastigote growth. Leishmania major promastigotes, resazurin fluorescence viability. inhibition, % at 10 µM. hit rate 9% among 200,000;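 further: promastigotes grown with compound for 44 hours at 28 °C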
Hsp70 activator: transcriptional activators of Hsp70. HeLa Hsp70 promoter luciferase reporter, luminescence; scaled: vehicle 0, proteasome-inhibitor control 100%. AID 1203. activation, % at 10 µM. hit rate 0.04% among 200,000;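 active means activation above the mean across all tested compounds plus 3 SD, cutoff set per campaign, cut at about 5.5% in these data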;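 further: 100% = MG132 at 30 µM as the positive control and 0% = DMSO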
S1P3 antag: antagonists of human S1P3 receptor | AID 485 | inhibition, % at 4.98 µM | hit rate 0.27% among 170,000 | Q99500 | CHO S1P3 NFAT-BLA reporter, FRET fluorescence, antagonist mode;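 active means inhibition above the plate cutoff, the mean inhibition of test wells on that plate plus 3 SD, cut at about 28% in these data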;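 further: cells challenged with S1P at its EC80 of 0.8 µM; blue over green emission ratio from cleaved BLA substrate after 4 h stimulation; 0% = S1P-stimulated wells and 100% = unstimulated DMSO-only wells; some compounds past the cut are filed as inactive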
G6PDH CS: L. mesenteroides G6PDH inhibition counter-screen; Purified L. mesenteroides G6PDH, diaphorase/resazurin coupled fluorescence, 45 min; inhibition, % at 5 µM; hit rate 0.12% among 200,000
RAM inhibit: blocks the yeast RAM network | S. cerevisiae dse1pr::URA3 reporter, 5-FOA growth OD615, 2 d; analog-sensitive cbk1-as2 kinase mutant strain | inhibition, % at 50 µM | hit rate 1.8% among 190,000;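 active means inhibition above a set limit, 3 SD over mean compound inhibition, cut at about 8.4% in these data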;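 further: 0% = DMSO-only wells with no growth and 100% = 10 µM 1-NA-PP1 full growth; inhibition rescues growth on 5-FOA so higher OD means more RAM inhibition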
TLR4-MyD88 BLA: TLR4-MyD88 interaction inhibition in cells; O00206+Q99836; HeLa CL3-4 TLR4/MyD88 BLA complementation, FRET ratio; inhibition, % at 8.4 µM; hit rate 0.18% among 200,000; in the data active means inhibition above about 25%;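 further: 0% = vehicle and 100% = reference inhibitor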
Target sequence (O00206 whole entry, looked up): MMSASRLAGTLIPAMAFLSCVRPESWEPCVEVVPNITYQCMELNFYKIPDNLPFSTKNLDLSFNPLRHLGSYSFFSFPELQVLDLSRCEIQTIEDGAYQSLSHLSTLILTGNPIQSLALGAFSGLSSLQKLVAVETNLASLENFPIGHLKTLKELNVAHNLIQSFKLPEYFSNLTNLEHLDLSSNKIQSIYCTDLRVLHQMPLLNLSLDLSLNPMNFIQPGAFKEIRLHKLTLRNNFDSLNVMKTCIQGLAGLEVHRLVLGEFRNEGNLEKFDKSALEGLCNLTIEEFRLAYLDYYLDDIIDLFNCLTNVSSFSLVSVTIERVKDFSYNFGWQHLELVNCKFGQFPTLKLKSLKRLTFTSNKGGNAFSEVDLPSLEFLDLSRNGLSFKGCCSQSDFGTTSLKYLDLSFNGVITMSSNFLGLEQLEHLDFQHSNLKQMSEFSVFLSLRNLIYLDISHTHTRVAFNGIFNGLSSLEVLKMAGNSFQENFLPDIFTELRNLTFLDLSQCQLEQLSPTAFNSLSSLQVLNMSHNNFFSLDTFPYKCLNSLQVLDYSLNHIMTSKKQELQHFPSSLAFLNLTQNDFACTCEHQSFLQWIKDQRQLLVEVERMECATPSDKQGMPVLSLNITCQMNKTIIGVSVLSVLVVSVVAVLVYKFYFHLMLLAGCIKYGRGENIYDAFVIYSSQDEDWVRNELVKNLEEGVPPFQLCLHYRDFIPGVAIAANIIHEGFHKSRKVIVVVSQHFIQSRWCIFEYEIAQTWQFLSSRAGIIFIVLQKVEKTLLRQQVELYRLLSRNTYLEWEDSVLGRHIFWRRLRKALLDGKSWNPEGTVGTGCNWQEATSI
Target sequence (Q99836 whole entry, looked up): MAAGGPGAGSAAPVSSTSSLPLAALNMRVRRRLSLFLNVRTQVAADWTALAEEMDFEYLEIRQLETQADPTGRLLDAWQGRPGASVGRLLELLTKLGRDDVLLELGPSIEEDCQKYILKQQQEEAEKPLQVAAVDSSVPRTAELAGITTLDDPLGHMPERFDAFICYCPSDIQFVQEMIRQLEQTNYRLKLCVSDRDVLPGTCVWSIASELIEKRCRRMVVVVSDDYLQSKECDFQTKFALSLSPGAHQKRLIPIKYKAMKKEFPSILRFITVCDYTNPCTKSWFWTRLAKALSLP
Diaphorase inh: inhibits diaphorase or chemically oxidizes, flagging diaphorase assay artifacts | diaphorase resazurin-to-resorufin fluorescence, NADH, 16 min; bacterial (C. kluyveri) enzyme, not human | inhibition, % at 20 µM | hit rate 0.69% among 190,000;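 active means primary screen inhibition at 20 µM above a set limit, cut at about 50% in these data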;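 further: plate controls were DMSO with full reaction for no effect and wells lacking NADH for full effect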
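Test system: Clostridium kluyveri diaphorase enzyme / Quantity: diaphorase at 0.14 U/mL in enzyme working solution / Incubation: 16-min room-temperature incubation before reading / Benchmarks: NADH-free wells as positive control, DMSO-only neutral wells / Signal: resorufin fluorescence 544/590 nm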
DTT redox prof: compounds producing H2O2 with reducing agent – biochemical, NIH compound library profiling, artefact control for MLSCN library redox annotation, primary screen | DTT-dependent redox cycling H2O2, phenol red/HRP absorbance; 100% = 100 µM peroxide control, 0% = buffer | activation, % at 10 µM | hit rate 0.03% among 200,000;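 active means activation of at least 50% relative to the plate's high and low controls in the primary single-dose screen; inactive means activation below 50%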;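 further: compound incubated with DTT at 0.8 mM final as the reducing agent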
Starred values were filed as active, the others as inactive; nt = no result given. Unless noted, no stated cut-off is given here; in the data, active means inhibition above about 50%; inactive means the rest. A portion of the library; rates above refer to the full screens.

The line under a structure holds: L major viab, Hsp70 activator, S1P3 antag, G6PDH CS, RAM inhibit, TLR4-MyD88 BLA, Diaphorase inh, DTT redox prof
CCOc1ccc(NC(=O)CCSc2nnc(C)s2)cc1
  -8, -0.5, nt, 10, -0.1, 1, 6, -3.0
CCOc1cc(/C=N/NC(=O)Cc2ccc(C(F)(F)F)cc2[N+](=O)[O-])c(Br)cc1OC
  -7, 0.0, nt, 2, 1.2, 0, 0, -4.8
O=C(O)C=C1CCN(c2ncc(C(F)(F)F)cc2Cl)CC1
  -6, 0.0, nt, 16, 0.8, 8, 0, 2.1
COc1ccc(Cn2c(SCc3ccccc3C)nc3cc(OC)c(OC)cc3c2=N)cc1
  100*, -0.2, nt, -2, 0.8, 8, -29, -2.5
CCOC(=O)N1CCN(c2cc(N)c([N+](=O)[O-])cc2F)CC1
  -2, 0.3, nt, 6, 1.1, 4, 6, 1.6
CCOc1cc(C2C(C(=O)OC(C)C)=C(C)N=C3SCCC(=O)N32)ccc1OC(C)=O (configuration not stated)
  -3, -0.3, 1, 20, -0.1, -2, 25, 6.9
CCCS(=O)(=O)N1CCCC(C(=O)NCCCN(C)Cc2ccccc2)C1 (configuration not stated)
  -4, -0.4, -11, 0, 0.1, -4, 12, 1.9
CCn1c(=O)cc(SCC(=O)NCc2ccc3c(c2)OCO3)c2ccccc21
  2, 0.0, nt, -3, 1.7, -8, 8, 1.4
COc1ccc(-c2c(C(C)=O)c(C)nc3sc4c(c23)NC(c2ccccc2)NC4=O)cc1 (configuration not stated)
  -5, -0.2, nt, 4, 7.9, 16, 4, -2.8
Cc1nc2ccccc2nc1SCC(=O)N1CCC(C)CC1
  -3, -0.2, nt, -6, 0.1, -4, 8, 1.6
Cc1ccc(C(=O)OCCc2c(C)[nH]n(-c3ccccc3)c2=O)cc1
  -2, -0.1, nt, 3, 2.7, 2, 10, -1.3
O=C(Cn1c(SCc2ccccc2)nc2ccccc21)N1CCOCC1
  -4, -0.3, nt, 12, 1.6, 5, 4, -0.3
COC(=O)C(NNc1ccccc1)(NC(=O)c1ccccc1F)C(F)(F)F (configuration not stated)
  5, -0.6, nt, 2, 1.4, 10, 8, -4.5
CCS(=O)(=O)c1ccc2c(c1)N(S(=O)(=O)c1ccc(OC)cc1)CC(C(=O)O)O2 (configuration not stated)
  -7, -0.1, nt, 11, -0.1, -12, -12, 0.9
COc1cc(/C=C(/C#N)C(=O)NCCc2c[nH]c3ccccc23)ccc1OCc1ccccc1F
  -4, -0.3, nt, 7, 3.4, 2, 31, -6.2
O=[N+]([O-])c1ccc(N2CCCCCC2)c(S(=O)(=O)N2CCCCC2)c1
  38, -0.4, nt, 0, 6.3, 7, 18, 3.0
CC(C)(C)c1nc2ccccc2c2nnc(SCC(=O)Nc3nc4ccccc4s3)n12
  24, -0.1, nt, 2, 4.4, -14, 18, -6.5
Nc1cc(Cl)ccc1Oc1ccc(Cl)cc1
  14, -0.2, nt, 10, -0.8, -10, 22, 2.2
CCNC(=O)CN1c2cccc3cccc(c23)S1(=O)=O
  -10, -0.1, nt, 14, 2.4, -9, 21, -8.6
O=C(CSc1nnc(Cc2cc(=O)[nH]c(=O)[nH]2)n1-c1ccccc1)N1CCCC1
  -1, -0.5, -59, 9, 0.0, -2, 5, -0.2
CC(C)(C)C(=O)Nc1ccc2c(c1)-c1cc(NC(=O)C(C)(C)C)ccc1C2
  -4, 0.1, nt, 11, 4.1, 2, 0, -0.5
COc1ccc(NC(=O)Cn2nnc(C(N)=O)c2N)c(OC)c1
  -2, 0.1, -54, -4, -1.0, -18, 0, 0.1
CC(=O)NS(=O)(=O)c1ccc(NC(=O)NC2CCCCC2)cc1
  -7, 0.0, nt, 3, -1.4, 3, -1, 1.5
S=c1nc(-c2ccccc2)[nH]n1-c1ccccc1
  -13, 0.5, nt, 2, 1.1, -4, 9, 0.2
Cc1ccc(-c2cc(C(=O)N3N=C(C(F)F)CC3(O)C(F)F)c3ccccc3n2)cc1C (configuration not stated)
  61*, -0.2, nt, 3, -0.7, -11, 28, -3.8
Cc1ccc(C(=O)N2c3ccccc3N(Cc3ccccc3)C(=O)C2(C)C)cc1
  17, -0.4, nt, 6, 3.3, -1, 8, 0.8
COc1ccc(N2CCN(c3oc(Cc4cccc5ccccc45)nc3C#N)CC2)cc1
  8, -0.1, nt, 3, 5.1, -5, 11, 4.7
CCNC(=O)C1CC(=O)N(c2ccc(OCC)cc2)C1 (configuration not stated)
  -6, -0.2, -7, 6, 1.7, 2, 11, -2.3
Cc1cccc(NC(=O)c2ccc(Cn3cc(C(F)(F)F)ccc3=O)cc2)c1
  35, -0.2, nt, 10, 0.8, 5, 17, 2.0
CCOC(=O)Cc1csc(NC(=S)NC(=O)c2ccc(Cl)cc2)n1
  -9, -0.5, nt, 4, 6.0, 12, 34, -3.6
NC(=O)[C@H](Cc1cc2ccccc2s1)NC(=O)[C@@H]1CC2(CC(c3cccc(NC(=O)[C@@H]4CCC(=O)N4)c3)=NO2)CN1C(=O)/C=C/c1c(F)cccc1Cl (some centres not stated)
  -4, -0.2, nt, -8, 7.4, -8, 18, -5.8
CCN(CC)S(=O)(=O)c1cccc(C(=O)Nc2ccc(Cl)cn2)c1
  -1, 0.1, -22, 3, 0.1, -2, 8, 2.7
COC(=O)[C@H](CCSC)NC(=O)NCc1ccccc1F
  4, -0.1, nt, 6, -0.7, 3, 14, 0.9
CCCc1cc(=O)[nH]c(SCC)n1
  -8, 0.0, -2, 2, 1.0, -2, 0, 3.2
O=c1c2ccccc2nnn1CSc1nnc(COc2ccc(Cl)cc2)n1Cc1ccco1
  -8, -0.4, 15, 7, 0.3, -3, 5, 0.3
O=c1ncn(-c2ccccc2F)c2ncccc12
  -4, 0.1, nt, 6, 2.1, -1, 11, -3.7
CCSc1ncccc1-c1nc2ccccc2[nH]1
  8, 0.0, nt, -19, -0.1, -4, 12, 0.0
C/C(=C1/SC(N2CCCC2)=NC1=O)c1ccc(Br)cc1
  1, -0.7, -24, 0, -2.1, -2, 7, -2.5
CCOc1c2ccc(C(=O)NCc3ccc(C)cc3)cc2nn1CC
  -5, -0.4, nt, 4, -0.3, -1, 13, -9.9
Cc1ncc(N=Nc2ccccc2Cl)c(-c2ccccc2)n1
  5, 0.0, nt, 5, 5.8, -11, 18, 1.3
Nc1ccc(Sc2ccccc2CC(=O)O)cc1
  -8, 0.6, nt, 10, 0.4, -9, 13, 2.4
COc1ccc(CCNC(=O)Cc2cc(OC)c(OC)cc2[N+](=O)[O-])cc1OC
  0, -0.4, nt, 5, -0.3, 5, -2, -3.3
CC(NC1CCCC1)C(=O)Nc1ccccc1-c1ccccc1 (configuration not stated)
  3, -0.2, nt, 5, 0.5, -4, 15, -0.7
CCCc1cc(=O)oc2c(CN3CCOCC3)c(O)ccc12
  2, -0.1, nt, 1, 0.7, 6, 5, -3.7
Cc1cc(C)nc(N2CCC(C(=O)NCCc3ccc(F)cc3)CC2)n1
  -1, -0.2, -20, 2, -0.7, 6, -15, 0.2
O=C(CSc1nc2ccccc2c(=O)n1-c1ccc(Cl)cc1)c1ccco1
  -2, -0.2, 1, -4, 5.1, -8, 13, -0.9
CCN(C(=O)CSc1nnc(Cc2cccc3ccccc23)n1N)C1CCS(=O)(=O)C1 (configuration not stated)
  0, -0.1, nt, 5, -0.1, 11, 2, -4.0
NC(=O)CNC(=O)[C@@H]1CC2(CC(c3ccc(Cl)cc3)=NO2)CN1C(=O)c1ccccc1 (some centres not stated)
  -9, 0.0, nt, 10, 2.1, -12, 11, -4.4
CC1(C)CC(=O)C(C(c2ccccc2F)C2C(=O)CC(C)(C)CC2=O)C(=O)C1
  -2, -0.1, nt, 4, 1.5, -15, 23, -0.6
Clc1ccc2ncc(-c3nnnn3-c3ccccc3)c(-c3ccccc3)c2c1
  32, -0.2, nt, 12, 3.5, 4, 21, -5.3
CC(C)OC(=O)NCCOC(=O)Nc1cccc(Cl)c1
  11, 0.1, 15, 4, 2.2, -2, 18, 1.0
O=C(CCC(=O)OCc1ccc(Cl)cc1)Nc1cccc([N+](=O)[O-])c1
  -4, -0.4, nt, 4, 1.5, 2, 10, 2.2
CCn1ncc(C(=O)Nc2cc(C)on2)c1C
  -4, 0.3, nt, 1, 0.7, 0, 4, -3.0
COc1ccc(Oc2ccccc2C=O)cc1
  25, -0.1, nt, -2, 1.2, 7, 7, 3.0
COc1ccccc1/C=N/NC(=O)CC(=O)Nc1ccc(Cl)c(Cl)c1
  1, -0.1, nt, -2, 3.3, 7, 26, -3.7
Cc1ccc(SCc2nnc(NC(=O)c3ccccc3)s2)cc1
  11, -0.4, nt, 3, 4.3, 1, -5, -5.7
CN(C)c1cc[n+](CC(=O)Nc2ccc([N+](=O)[O-])cc2Cl)cc1
  -5, -0.1, nt, 7, -0.8, 6, 2, 1.2
CC(=O)c1ccc(NC(=O)Cn2nc(C)cc2C)cc1
  -4, 0.1, -18, 6, 1.6, 5, 8, -0.2
O=C(c1ccc2nc(-c3ccco3)c(-c3ccco3)nc2c1)N1CCN(c2ncccn2)CC1
  -8, -0.5, nt, 27, 2.0, -5, 66*, -3.3
COC(Cc1n[nH]c(=S)n1-c1ccc(Cl)cc1)OC
  -2, -0.4, nt, 4, 1.1, -6, 4, 1.5

Some of the entries above in a different format.
Clc1ccc2ncc(-c3nnnn3-c3ccccc3)c(-c3ccccc3)c2c1
  L major viab: 32
  Hsp70 activator: -0.2
  S1P3 antag: nt
  G6PDH CS: 12
  RAM inhibit: 3.5
  TLR4-MyD88 BLA: 4
  Diaphorase inh: 21
  DTT redox prof: -5.3

CC1(C)CC(=O)C(C(c2ccccc2F)C2C(=O)CC(C)(C)CC2=O)C(=O)C1
  L major viab: -2
  Hsp70 activator: -0.1
  S1P3 antag: nt
  G6PDH CS: 4
  RAM inhibit: 1.5
  TLR4-MyD88 BLA: -15
  Diaphorase inh: 23
  DTT redox prof: -0.6

Arranged by the number under RAM inhibit (descending): 6 from the list above.
| Compound | RAM inhibit |
| --- | --- |
| Clc1ccc2ncc(-c3nnnn3-c3ccccc3)c(-c3ccccc3)c2c1 | 3.5 |
| COc1ccccc1/C=N/NC(=O)CC(=O)Nc1ccc(Cl)c(Cl)c1 | 3.3 |
| O=C(c1ccc2nc(-c3ccco3)c(-c3ccco3)nc2c1)N1CCN(c2ncccn2)CC1 | 2.0 |
| CC1(C)CC(=O)C(C(c2ccccc2F)C2C(=O)CC(C)(C)CC2=O)C(=O)C1 | 1.5 |
| COc1ccc(Oc2ccccc2C=O)cc1 | 1.2 |
| CCN(C(=O)CSc1nnc(Cc2cccc3ccccc23)n1N)C1CCS(=O)(=O)C1 (configuration not stated) | -0.1 |

Carrying on.
The line under a structure holds: L major viab, Hsp70 activator, S1P3 antag, G6PDH CS, RAM inhibit, TLR4-MyD88 BLA, Diaphorase inh, DTT redox prof
CCCS(=O)(=O)N1CCCC(C(=O)NCc2cccnc2)C1 (configuration not stated)
  -5, -0.1, 7, 2, 0.5, 5, 2, 4.0
O=C(c1ccco1)N1CCN(c2ncccn2)CC1
  -5, 0.0, -9, 1, 2.0, -11, 24, -0.6
Cc1c(C(=O)Nc2ccc(OC(F)(F)F)cc2)sc2nc3n(c(=O)c12)CCC3
  -4, -0.2, nt, 9, 2.7, -5, 4, 2.2
CCN(CCCNC(=O)C1CCN(S(=O)(=O)CC)CC1)c1cccc(C)c1
  6, 0.1, 13, -4, 1.0, -6, 12, 2.3
O=C(c1ccccc1)c1c[nH]c(C(=O)NCCCn2ccnc2)c1
  -2, -0.1, nt, 7, 1.6, -8, 10, -3.0
